RN4220 kill: growth inhibition of S. aureus RN4220, primary screen, OD600; AID 1259311, 2017; inhibition, % (concentration not given with the values); actives 0.33% (n = 330,000); 16 h;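 active means z-score of -3 or lower and OD600 up to 0.18 on both plates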;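 further: plate controls were untreated cells for no effect and reference antibiotic for full effect; stock transfer was 100 nL into about 80 µL; one replicate is shown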
Bead autofluor: compound fluorescence in toxin protease inhibitor counterscreen; compound autofluorescence counterscreen, microsphere flow cytometry; active compounds read high; actives 3.1% (n = 360,000); fluorescence intensity (test concentration not listed);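 active means at least 3 SD above the mean of all compounds, about 16000 in these data; inconclusive means too few beads counted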;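 further: 100 nL of 1 mM stock went into each well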
Mtb hypoxia inh: PubChem AID 1159583; M. tuberculosis hypoxia-regulated fluorescent reporter, fluorescence; fluorescence inhibition, % (concentration not given with the values); actives 0.1% (n = 300,000);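 active means 35 to 45% if threefold the growth effect, above 45% if 1.5-fold the growth effect; inactive means the rest, general growth blockers included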;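 further: wells of about 50 µL received 100 nL stock; 0% = vehicle wells and 100% = reference inhibitor wells; whole bacteria with a GFP reporter of the hypoxia response; strong numbers were not always called active; many hits fall short of the cut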
BJeLR viability: MLPCN primary cell-based screen for lethality selective to Ras in HRASV12 cells; inhibition, % (concentration not given with the values); AID 1554, 2009; BJeLR (HRASV12) viability, CellTiter-Glo ATP luminescence, 48 h; reference of the scale not given here; actives 0.17% (n = 300,000);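 active means replicate mean above 50%; inconclusive means above 50% but judged a plate artefact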;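 further: 50 nL library stock added to about 25 µL; numbers are from one replicate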
PrP 5UTR inh: inhibition of PrP 5' UTR reporter expression | actives 0.35% (n = 340,000) | inhibition, % (no concentration beside the values) | cell-based PrP 5' UTR mRNA reporter, plate reader | AID 488862, 2010;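 active means every replicate at 50% or more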;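 further: 0 = median of the neutral control wells; tested in H4 reporter cells; numbers are from one replicate; inactives centre near -14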
Sa ugtP lethal: growth inhibition of ugtP-null S. aureus, primary screen, RN4220 ugtP deletion, OD600; 16 h; some inactives read as strong as hits; growth inhibition, % (test concentration not listed); actives 0.54% (n = 330,000); AID 1259309, 2017;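 active means z-score under -3 and OD600 up to 0.15 on both plates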;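 further: plate controls were untreated wells for no effect and antibiotic for full effect; wells of about 80 µL received 100 nL stock; the first replicate is given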
Mtb hypoxia inh growth: further read-out of Mtb hypoxia inh, marked with its call; growth inhibition, %; measured here: M. tuberculosis growth (absorbance);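 0% = vehicle and 100% = reference antibiotic; read after six days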
* marks the source's active call; other numbers are inactive results; ? = inconclusive; nt = no result given; & = joins results of further samples. No enrichment for hits. Share with any hit: about 4.1%.

SMILES	RN4220 kill	Bead autofluor	Mtb hypoxia inh	Mtb hypoxia inh growth	BJeLR viability	PrP 5UTR inh	Sa ugtP lethal
COc1cc(/C=N/NC(=O)CNC(=O)/C=C/c2ccco2)cc(OC)c1OC	nt	2803	nt	nt	-5.8	-10.5	nt
Cc1n[nH]c(=O)c2c(NC(=O)CSc3nn(-c4ccc(F)cc4)c(=S)s3)oc(C)c12	5.9	?	-5.0	0.5	2.5	-5.0	-0.7
COc1ccccc1CCC(=O)Nc1nc2ccccc2[nH]1	-2.6	4794	nt	nt	1.5	-86.8	2.1
CN1c2ccccc2C(=O)NC1c1ccc(Cl)cc1 (configuration not stated)	2.1	3215	3.5	-0.2	3.4	2.2	6.3
COc1ccc(S(=O)(=O)N2CCCc3ccccc32)cc1OC	2.1	6855	4.1	14.5	-16.7	-8.0	-1.6
Cc1ccc2nc(SCC(=O)Nc3ccc4c(c3)OCCO4)[nH]c2c1	0.3	4005	nt	nt	2.1	-10.1	2.2
Cc1c(NS(=O)(=O)c2cccc(C(=O)OCC(=O)c3ccc(Cl)cc3)c2)c(=O)n(-c2ccccc2)n1C	2.2	nt	9.3	10.4	nt	-8.9	1.6
Fc1cccc(F)c1C=NNC(=S)Nc1cccnc1	10.8	nt	10.7	9.5	nt	nt	15.5
Cn1c(COc2ccccc2)nnc1SCCC(=O)Nc1ccccc1	10.6	2233	nt	nt	8.5	11.0	11.7
CNC(=O)c1ccc(NC(=O)c2cc(S(=O)(=O)N(C)C)ccc2N2CCCC2)cc1	3.1	3065	3.8	4.4	nt	-14.9	-1.7
Cc1ccc(NC(=S)Nn2cnnc2)c(C)c1	nt	4868	nt	nt	4.7	1.8	nt
Cc1ccc(NS(=O)(=O)c2ccc(/C=C/C(=O)O)cc2)cc1Cl	8.4	4490	9.7	4.3	-1.4	-23.8	4.5
O=C(NC1CCCC1)NS(=O)(=O)c1ccccc1Cl	0.4	3475	4.7	-3.6	4.5	-20.9	6.1
COc1ccc(C(=O)OCCN2C(=O)c3ccccc3C2=O)cc1OC	1.4	4775	11.8	3.4	nt	-3.3	-1.1
Cn1cnc([N+](=O)[O-])c1Oc1cccc(O)c1	5.6	2488	14.5	12.7	-2.9	-23.8	2.2
COc1ccc(-c2cc([N+](=O)[O-])ccc2OCC(=O)N(C)CC(=O)Nc2ccc(C)cc2)cc1	-3.7	?	13.6	-3.6	nt	-1.1	4.0
COc1ccccc1OCC(=O)Nc1cccc(N(C)S(C)(=O)=O)c1	7.9	11076	17.5	4.8	24.9	10.4	3.1
Cc1cccc(N(C(=O)c2nsc(Cl)c2Cl)C(C(=O)NC2CCCC2)c2ccc(O)cc2)c1C (configuration not stated)	7.8	2569	-2.8	2.9	-15.4	-20.2	-2.2
Cc1c(OCc2nn[nH]n2)ccc2c3c(c(=O)oc12)CCC(C)C3 (configuration not stated)	-0.2	22299*	-0.6	8.5	8.9	-12.5	-3.1
COc1ccc(-n2nc(C(=O)NCC(=O)N3CC(C)CC(C)C3)c3ccccc3c2=O)cc1 (configuration not stated)	3.0	3987	12.4	4.3	-6.6	-7.2	2.8
COC(=O)c1cn(CCOc2ccc(C)cc2)c2ccccc12	4.4	22793*	3.1	8.6	12.3	-38.4	-21.5
Cc1ccc(NC(=O)CN(C)C(=O)c2ccc(OCc3c(C)noc3C)cc2)cc1	0.5	?	2.5	1.0	nt	-19.4	2.6
CCN1CCN(C(=O)C2(NC(=O)Nc3ccccc3Cl)CCCCC2)CC1	9.0	?	19.3	4.4	1.3	-3.0	3.4
COc1ccc(C(=O)CSC2=C(C#N)C3(CCCCC3)C(C#N)=C(N)N2)cc1	2.0	10925	-0.4	9.9	7.9	-9.9	14.7
COc1ccc(CCNC(=O)CCCCCN2C(=O)c3ccccc3C2=O)cc1	1.5	3730	nt	nt	4.9	-2.4	7.8
O=C(COc1ccc(Br)cc1)NNC(=S)NC(=O)c1ccccc1[N+](=O)[O-]	21.3	2019	-2.8	3.9	12.2	-10.5	1.7
C=CCNc1cc(C(F)(F)F)nc(-c2ccccn2)n1	3.3	19805*	-4.3	0.9	-0.3	-11.0	-2.2
CC(=O)N1CCN(S(=O)(=O)c2cccc(C(=O)OCC(=O)NC(=O)c3cccn3C)c2)CC1	3.1	2130	6.2	9.2	4.8	-33.4	-2.0
CSCCC(NC(=O)c1cccc(S(=O)(=O)N2CCN(C(C)=O)CC2)c1)c1nc2ccccc2[nH]1 (configuration not stated)	2.9	3093	1.6	0.1	nt	3.4	-2.1
Fc1cccc(Cc2noc(CN3CCC(c4ccncc4)CC3)n2)c1	2.5	3179	4.0	2.7	0.1	-16.0	7.5
CCOC(=O)C(C(=O)OCC)N(C#N)c1nc(OC)nc(N(C)C)n1	6.8	3579	9.0	4.9	3.3	-7.4	1.4
Cc1cc(NN=Cc2ccc(O)cc2O)c2ccccc2n1	0.8	nt	0.0	7.5	nt	nt	1.0
Cc1ccc(C=NNC(=O)C(NC(=O)c2ccccc2)c2n[nH]c(=O)c3ccccc23)cc1 (configuration not stated)	19.1	nt	-10.3	1.4	nt	nt	-5.0
COc1ccc(OC)c(S(=O)(=O)N(C)CC(=O)N2CCN(c3ccccc3F)CC2)c1	3.6	2498	nt	nt	-3.7	-9.9	2.7
COc1ccc(C(=O)NCC(=O)OCC(=O)c2cc(OC)c(OC)c(OC)c2)cc1OC	3.6	2499	3.4	11.8	-1.9	-4.0	-0.8
CC(=O)n1cc(C=NNC(=O)c2ccc([N+](=O)[O-])cc2)c2ccccc21	1.6	nt	2.6	7.6	nt	nt	-7.4
CCC(C)NC(=O)C1CCN(S(=O)(=O)N2CCCC2)CC1 (configuration not stated)	3.5	10835	1.5	2.2	-1.9	-7.9	-1.0
Cc1ccc(-c2c(C)n([O-])c3c([n+]2=O)CCCCC3)o1	-0.3	9204	7.2	12.0	9.9	-15.7	-0.9
CN(CC(Cc1ccccc1)N(CC(Cc1cccc2ccccc12)N(CCc1ccccc1)N=O)N=O)N=O (configuration not stated)	5.0&6.9	nt	16.7&17.7	15.6&1.7	nt	nt	7.4&10.0
Cc1ccc2sc(N(CCN(C)C)C(=O)c3ccc(S(=O)(=O)N4CC(C)OC(C)C4)cc3)nc2c1C (configuration not stated)	4.6	4837	10.6	6.4	-1.7	2.2	5.9
CN1CCCC(C(=O)c2ccccc2)C1 (configuration not stated)	1.9	4458	3.6	-11.7	-2.4	-15.1	6.2
COc1ccccc1/C=C/CN1CCCC(CO)(Cc2cccc(Cl)c2)C1 (configuration not stated)	-3.7	4566	-4.6	8.1	7.5	-15.6	-5.8
Cc1cccc(NC(=O)NNC(=O)CCc2ccccc2)c1	1.6	5940	2.3	-1.0	-2.4	0.3	0.2
CCN(c1ccccc1)S(=O)(=O)c1ccc(OCc2c(C)noc2C)cc1	5.3	4792	nt	nt	2.1	-10.1	12.8
Cc1ccc(OCC(O)CNC(C)c2ccccc2)cc1C (configuration not stated)	5.6	4552	13.7	-2.1	-3.0	-10.2	12.9

The final 5 records of the section above come first, to join the parts.
SMILES	RN4220 kill	Bead autofluor	Mtb hypoxia inh	Mtb hypoxia inh growth	BJeLR viability	PrP 5UTR inh	Sa ugtP lethal
CN1CCCC(C(=O)c2ccccc2)C1 (configuration not stated)	1.9	4458	3.6	-11.7	-2.4	-15.1	6.2
COc1ccccc1/C=C/CN1CCCC(CO)(Cc2cccc(Cl)c2)C1 (configuration not stated)	-3.7	4566	-4.6	8.1	7.5	-15.6	-5.8
Cc1cccc(NC(=O)NNC(=O)CCc2ccccc2)c1	1.6	5940	2.3	-1.0	-2.4	0.3	0.2
CCN(c1ccccc1)S(=O)(=O)c1ccc(OCc2c(C)noc2C)cc1	5.3	4792	nt	nt	2.1	-10.1	12.8
Cc1ccc(OCC(O)CNC(C)c2ccccc2)cc1C (configuration not stated)	5.6	4552	13.7	-2.1	-3.0	-10.2	12.9
Cc1csc(SC(C)C(=O)NCC(=O)Nc2ccc(F)c(F)c2F)n1 (configuration not stated)	-1.0	3958	8.6	7.2	10.0	-32.4	1.4
O=c1[nH]c(=O)n(-c2ccc(F)cc2)c(O)c1C=NCCN1CCCCC1	2.9	5656	1.7	4.0	-15.4	-21.1	11.3
N#CCSCC(=O)Nc1ccccc1	0.2	5492	nt	nt	nt	-31.3	-0.4
COc1ccc(N2CCN(Cc3nc4cc(Cl)ccc4c(=O)[nH]3)CC2)cc1	1.0	4530	8.0	0.6	-5.0	-0.5	2.6
COc1cccc(CN(C)C(=O)c2ccc(NC(=O)CC3SC(N4CCCCC4)=NC3=O)cc2)c1OC (configuration not stated)	-2.9	3923	4.6	2.0	nt	-3.0	0.6
COc1ccc(/C(N)=N/OC(=O)CCC2CCCC2)cc1OC	4.3	5066	14.6	1.5	-2.2	-19.4	4.1
COc1ccc(CSCCN)cc1Cl	2.4	5713	0.3	-0.6	2.2	-9.8	7.8
COc1cccc(-c2c(C(=O)NN=Cc3ccsc3)nnn2-c2nonc2N)c1	-1.6	nt	-1.1	-4.6	nt	nt	-1.9
O=C(COc1ncnc2ccc(Br)cc12)NC1CCCC1	6.0	6240	6.9	-1.3	nt	-19.0	14.7
CC(=O)n1cc(C=NNC(=O)c2ccccc2O)c2ccccc21	-1.8	nt	0.5	0.4	nt	nt	14.8
O=Cc1ccccc1-n1cncn1	4.3	4106	5.5	6.6	-5.2	79.8*	4.8
COc1ccc(NC(=O)CN(C)C(=O)/C=C/c2cn(-c3ccccc3)nc2-c2ccc(F)cc2)cc1	-2.1	5967	-1.9	7.9	3.1	-8.3	-9.8
Cc1nnc2ccc(N3CCCCC3)nn12	0.0	3679	2.0	4.2	0.9	-13.5	8.8
COc1ccccc1C(C)NCC(=O)Nc1c(F)cccc1F (configuration not stated)	-0.8	4516	12.2	13.8	2.6	-11.5	0.9
CCOC(=O)c1c(CC(C)C)csc1NC=O	-0.7	2741	10.0	5.2	-2.2	7.8	-20.9

Record cards, as listed above. Values in the order: RN4220 kill | Bead autofluor | Mtb hypoxia inh | Mtb hypoxia inh growth | BJeLR viability | PrP 5UTR inh | Sa ugtP lethal
O=Cc1ccccc1-n1cncn1 is listed with 4.3 | 4106 | 5.5 | 6.6 | -5.2 | 79.8* | 4.8
COc1ccc(/C(N)=N/OC(=O)CCC2CCCC2)cc1OC is listed with 4.3 | 5066 | 14.6 | 1.5 | -2.2 | -19.4 | 4.1
O=C(COc1ncnc2ccc(Br)cc12)NC1CCCC1 is listed with 6.0 | 6240 | 6.9 | -1.3 | nt | -19.0 | 14.7
Cc1nnc2ccc(N3CCCCC3)nn12 is listed with 0.0 | 3679 | 2.0 | 4.2 | 0.9 | -13.5 | 8.8

Next section:
SMILES	RN4220 kill	Bead autofluor	Mtb hypoxia inh	Mtb hypoxia inh growth	BJeLR viability	PrP 5UTR inh	Sa ugtP lethal
Cc1cc(C)n(CC(O)COc2ccc(C(C)C)c(C)c2)n1 (configuration not stated)	8.7	3681	14.1	-1.1	0.1	-40.0	12.8
Cc1ccc(S(=O)(=O)N2CCOCC2)cc1NC(=O)CN1CCN(c2ccc(O)cc2)CC1	-3.8	9118	-2.8	2.4	-5.8	-26.9	-1.9
CC(=O)NC(=S)Nc1cc(C(=O)O)ccc1Cl	-1.7	4479	-0.4	2.5	-0.9	-34.7	7.0
C=CCC1(C=NO)CCOC(C)(C)C1 (configuration not stated)	3.6	nt	12.1	-2.5	nt	nt	8.5
CNC(=O)c1cn2c3c(ccc(Cl)c3c1=O)OC(C)C2 (configuration not stated)	2.7	3673	-5.2	-0.3	nt	-9.0	2.6
Cn1nnnc1SCc1ccccc1F	3.1	22071*	5.4	4.6	-2.0	-3.8	6.8
CN(CC(=O)Nc1ccccc1F)Cc1cccs1	8.4	3463	2.8	-4.2	-8.0	-19.7	4.8
COc1cc2c(cc1NC(=O)CN1CCN(S(=O)(=O)c3ccccc3F)CC1)oc1ccccc12	-0.7	2708	nt	nt	5.9	-4.1	-3.5
c1ccc(-c2nc3cccnc3nc2-c2ccccc2)cc1	6.8	6090	7.7	10.4	-2.8	-9.0	5.0

Screens as filed in PubChem.
